Screens: PubChem BioAssay, several laboratories
AF4-AF9 inh: blocks AF4 peptide binding to human AF9 | inhibition, % at 10 µM | 0.47% of 350,000 active | AlphaScreen, biotin-AF4 peptide binding to FLAG-AF9 | P42568;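 active means every replicate reaching a set inhibition limit, whatever the replicate mean, cut at about 25% in these data; inconclusive means mean inhibition reaches that limit but some replicates miss it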;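 further: 0% = plate neutral control median and 100% = total signal loss; the record names both 10 and 1 µM as test concentration; the first replicate is given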
Target sequence (P42568 whole entry, looked up): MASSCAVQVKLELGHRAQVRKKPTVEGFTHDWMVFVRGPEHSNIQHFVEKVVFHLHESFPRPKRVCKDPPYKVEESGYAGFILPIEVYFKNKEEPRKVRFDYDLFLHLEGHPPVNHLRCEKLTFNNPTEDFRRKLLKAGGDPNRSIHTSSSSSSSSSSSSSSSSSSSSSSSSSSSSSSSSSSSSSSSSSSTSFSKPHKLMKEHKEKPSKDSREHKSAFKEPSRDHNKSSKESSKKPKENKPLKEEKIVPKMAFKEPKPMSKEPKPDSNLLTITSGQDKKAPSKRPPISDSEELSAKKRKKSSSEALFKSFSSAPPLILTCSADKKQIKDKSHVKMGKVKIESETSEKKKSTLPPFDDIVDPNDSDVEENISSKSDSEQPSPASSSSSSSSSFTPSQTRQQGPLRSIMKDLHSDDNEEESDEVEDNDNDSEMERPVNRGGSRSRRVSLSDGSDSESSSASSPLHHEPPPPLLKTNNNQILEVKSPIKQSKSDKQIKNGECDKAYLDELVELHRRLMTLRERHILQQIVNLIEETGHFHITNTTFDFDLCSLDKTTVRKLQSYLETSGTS
Vif TR-FRET: inhibitors of Vif binding to APOBEC3G peptide, primary screen, biochemical, TR-FRET, GST-Vif 1-94, biotin-A3G peptide, dose response retest (AID 1117319); one-dose inhibition, %; IC50 in µM for titrated hits; TR-FRET GST-Vif / biotin-A3G peptide binding; higher % means a stronger effect; test concentration not given here; strong numbers were not always called active; 0.57% of 260,000 active;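 active means above the screen mean plus three standard deviations and confirmed in dose response; inconclusive means results disagree or hit not tested in dose response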;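 further: Vif residues 1-94 fused to GST binding biotinylated APOBEC3G peptide 110-148; 0% = full assay without inhibitor and 100% = GST in place of GST-Vif; retest series ran down from 100 µM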
ALR H2O2 inh: blocks human ALR sulfhydryl oxidase activity | P55789 | purified ALR, DTT oxidation, H2O2 HRP-luminol luminescence | inhibition, % (test concentration not listed) | 3.8% of 290,000 active | AID 485317;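 active means mean and each replicate at 75% or more; inconclusive means only one of the two met; inactive means neither met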;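 further: stock transfer was 7.5 nL into about 7.5 µL; 0% = neutral wells and 100% = wells with inactivated enzyme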
Target sequence (P55789 whole entry, looked up): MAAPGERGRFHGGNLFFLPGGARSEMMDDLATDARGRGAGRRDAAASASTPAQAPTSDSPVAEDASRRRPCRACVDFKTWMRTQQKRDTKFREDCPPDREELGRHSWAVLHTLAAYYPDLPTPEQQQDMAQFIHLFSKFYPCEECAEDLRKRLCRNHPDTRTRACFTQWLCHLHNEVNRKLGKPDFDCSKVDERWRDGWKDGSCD
FGF22 binding: binders of recombinant human FGF22 by thermal shift. Q9HCT0. SYPRO orange fluorescence; percent of sucrose octasulfate shift, DMSO zero. calls only at 9.99 µM. 1.5% of 340,000 active;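 active means melting point raised past a set limit in the mean and every replicate; inconclusive means no clear call; three in four hits are not shown here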
Target sequence (Q9HCT0 whole entry, looked up): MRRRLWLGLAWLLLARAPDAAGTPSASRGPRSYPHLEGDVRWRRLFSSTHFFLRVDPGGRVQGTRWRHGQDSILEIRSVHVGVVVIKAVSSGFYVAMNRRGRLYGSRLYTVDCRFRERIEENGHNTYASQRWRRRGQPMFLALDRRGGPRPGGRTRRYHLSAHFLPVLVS
HNF4A DNA FP: change in binding of human HNF4 alpha to DNA; 0.3% of 360,000 active; activity change, % at 10 µM; HNF4a-FITC DNA binding, fluorescence polarization, 1 h; P41235; AID 1224865; in the data active means activity change above about 30%, passing the limit was not always enough;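 further: controls were the assay level and a saturating level of protein; the project sought stronger binding though the title names inhibitors; some compounds called inactive have numbers as strong as hits; positive values seem to mean higher polarization but the record does not say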
E coli growth: E. coli growth inhibition; Escherichia coli growth, OD600, 23 h; active compounds read low; OD600 absorbance (test concentration not listed); 0.21% of 330,000 active; AID 1053175;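 active means OD600 absorbance below the run mean of sample wells minus 3.6 SD, in any replicate, cut at about 0.56 in these data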;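 further: stock transfer was 300 nL into about 60 µL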
rRNA inh HTS: selective bacterial rRNA inhibition in E. coli | E. coli WT GFP vs humanized-ribosome RFP mutants, fluorescence, 24 h; active compounds read low; DMSO median 0, no signal -100 | GFP signal change (wild-type ribosome), % (concentration not given with the values) | 1.6% of 350,000 active;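 active means significant combined selectivity score with lowered wild-type GFP, culture density cut under 30%, mutant RFP and density less affected; inactive means any of these conditions unmet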; further: one replicate is shown; some compounds called inactive have numbers as strong as hits
rRNA inh HTS OD600: recorded beside rRNA inh HTS, whose call it bears; OD600 change, %; measured here: OD600 growth;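 optical density of the mix in the first replicate; 0 = DMSO median and -100 = no signal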
rRNA inh HTS RFP: also measured in rRNA inh HTS; calls as there; RFP signal change, %; measured here: RFP humanized mutant strains;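 first replicate; 0 = DMSO median and -100 = no signal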
An asterisk follows results filed as active; i = inactive; ? = inconclusive; . = not tested or not shown.

SMILES	AF4-AF9 inh	Vif TR-FRET	ALR H2O2 inh	FGF22 binding	HNF4A DNA FP	E coli growth	rRNA inh HTS	rRNA inh HTS OD600	rRNA inh HTS RFP
CCOc1ccc2nc(SCC(=O)Nc3nonc3C)[nH]c2c1	-0.3	-5.7%	-15.8	i	4.8	.	-20.4*	-14.4*	0.7*
CCOC(=O)C1C(=O)CC(C)(O)C(C(=O)OCC)C1c1cccs1 (stereo not drawn)	.	1.3%	-7.7	.	-1.7	0.728	.	.	.
CCNC(=O)C[C@@H]1CC[C@@H]2[C@H](COC[C@H](O)CN2C(=O)Nc2ccc(C(F)(F)F)cc2)O1	-1.6	.	.	i	.	.	-52.7	-70.4	-6.8
COc1ccc(/C=N/NC(=O)c2cccnc2)cc1CN1CCN(c2ccc(F)cc2)CC1	5.0	.	.	i	-2.2	.	12.3	9.1	1.2
CCOc1ccc(S(=O)(=O)N2CCC(C(=O)N3CCN(c4ccccc4F)CC3)CC2)cc1C	-0.4	.	14.3	i	0.7	0.724	0.6	-4.1	1.8
Cc1ccc(NC(=S)NCCN2CCOCC2)cc1	.	-2.1%	56.3	.	0.3	.	.	.	.
OC(COc1cccc(OCC(O)CN2CCCC2)c1)CN1CCCC1 (stereo not drawn)	.	-4.0%	-4.8	.	2.8	0.699	.	.	.
CC(C)CC(N=C1NC(C)(C)Cc2ccccc21)C(=O)O (stereo not drawn)	.	6.6%	0.3	.	-2.3	0.682	.	.	.
O=C(c1ccc(NC(=O)C2(c3ccccc3)CCCC2)cc1)N1CCOCC1	0.6	-3.5%	-4.1	i	1.1	0.6	2.9	-2.2	0.1
Cc1noc(C)c1S(=O)(=O)N(C)C[C@@H]1OCc2cn(nn2)CCCC(=O)N([C@@H](C)CO)C[C@@H]1C	1.3	.	.	i	.	.	3.0	3.0	1.0
CC1(C(=O)NS(=O)(=O)c2ccc(Cl)cc2)CCN1C(=O)c1ccccc1CCc1ccccc1 (stereo not drawn)	-1.2	.	.	i	-2.1	.	-19.2	-20.4	1.0
Cn1c(Cn2c(=O)sc3ccccc32)nnc1SCc1cccc(F)c1	-2.8	17.3%	-10.0	i	2.8	0.721	3.7	-0.8	1.5
O=C(NC1CCCCC1)c1cccnc1Sc1ccccc1Cl	-0.7	.	-4.5	i	2.1	0.656	5.5	7.9	2.0
CC(C)N(CCc1ccncc1)C(=O)Nc1ccc(F)cc1	-1.3	10.2%	-14.5	i	2.5	0.702	4.8	9.2	-0.8
O=C(COCC(=O)N/N=C/c1ccccc1F)N/N=C/c1ccccc1F	-7.7	1.1%	-3.7	i	3.0	.	-1.4	5.2	-2.3
Cc1ccc(-c2ccc(/C=C/C(=O)c3ccccc3)o2)cc1	0.3	.	.	i	16.3	0.704	-5.1	9.5	17.1
CCOC(=O)/C(=N\NC(=O)c1ccccc1)c1ccccc1	8.3	1.6%	-5.9	i	-7.5	.	1.4	-0.4	-6.9
Cc1ccc(S(=O)(=O)N(C)C[C@@H]2Oc3ccc(NS(=O)(=O)c4cccs4)cc3C(=O)N([C@H](C)CO)C[C@H]2C)cc1	-3.9	.	.	i	.	.	-3.3	-9.8	1.0
C[C@@H]1CN([C@@H](C)CO)C(=O)c2cc(NS(=O)(=O)c3ccc(Cl)cc3)ccc2O[C@H]1CN(C)S(=O)(=O)c1cn(C)cn1	-2.0	.	.	i	.	.	-0.8	6.1	-3.0
CN1c2ccc(-c3ccc(F)cc3)cc2[C@H]2[C@H](CCN2S(=O)(=O)c2cccc(F)c2)[C@H]1CO	16.5	.	.	i	.	.	1.8	6.8	3.8
C[C@@H]1CN([C@@H](C)CO)C(=O)c2cc(NC(=O)C3CC3)ccc2O[C@@H]1CN(C)Cc1ccccc1	-1.8	.	.	i	.	.	1.8	5.7	0.9
Cc1cc(C)c(C(=O)c2cccs2)c(C)c1	0.8	10.8%	.	i	2.8	0.666	4.0	18.8	-0.3
CCCOC(=O)c1ccc(S(N)(=O)=O)o1	.	-9.6%	-1.9	.	-3.3	0.71	.	.	.
Cc1ccc(C)c(N2N=C(C(=O)N(CC(C)C)c3c(N)n(Cc4ccccc4)c(=O)[nH]c3=O)CCC2=O)c1	2.3	8.7%	0.1	i	-8.3	0.714	11.8	6.9	1.8
COc1cccc(-c2cc(N3CCN(C(=O)c4ccoc4)CC3)n3nc(-c4cccc(Cl)c4)cc3n2)c1	-3.2	.	.	i	-1.5	.	.	.	.
COC(=O)c1c(C)oc(C)c1S(=O)(=O)NCC1CC1	3.3	14.6%	-18.8	i	6.2	0.667	15.1	7.5	-0.5
c1cncc(-c2noc(-c3ccco3)n2)c1	.	1.8%	-11.6	.	0.5	0.718	.	.	.
COC(=O)c1c(CSc2ccc(Cl)cc2)noc1C(=O)NCc1ccco1	-2.0	-2.4%	1.2	i	-1.5	0.817	-29.9	-45.0	-15.5
CN(C(=O)CSc1nncn1-c1ccccc1)c1ccccc1	1.5	2.8%	-3.1	i	-4.2	0.709	5.8	8.0	-1.1
CC(NC(=O)COC(=O)c1ccccc1O)c1ccccc1 (stereo not drawn)	0.3	-2.4%	.	i	5.7	.	-0.7	0.0	-2.8
CCOc1cc(CN2CCN(c3cccc(C(F)(F)F)c3)CC2)ccc1OC	.	1.8%	-8.1	.	1.1	0.67	.	.	.
CC1CCCCC1NC(=O)C1CCN(c2c3c(nc4ncnn24)CCC3)CC1 (stereo not drawn)	0.2	0.0%	1.6	i	5.1	0.676	.	.	.
O=C(Nc1nncs1)C12CC3CC(CC(Cl)(C3)C1)C2	-1.3	2.0%	-1.1	i	-1.4	0.687	6.8	11.6	-1.5
Cc1ccc(S(=O)(=O)N(C)C[C@H]2Oc3ccc(NC(=O)Nc4ccccc4)cc3C(=O)N([C@H](C)CO)C[C@@H]2C)cc1	3.2	.	.	i	.	.	2.9	-5.9	0.3
COCCn1c(SCc2nnc(-c3ccc(OC)c(OC)c3)o2)nnc1-c1ccncc1	-0.8	4.4%	-17.9	i	1.1	0.712	8.1	5.2	1.3
O=C(O)Cc1csc(-c2ccc(F)cc2)n1	-3.0	3.0%	.	i	-1.2	0.7	-3.3	5.1	1.0
COc1cc(C(=O)OC2CCN(C)CC2)cc(OC)c1OC	.	2.3%	-4.4	.	4.5	0.735	.	.	.
CC=Cc1ccc2n(c1=O)C[C@@H]1[C@@H](CO)[C@H](C(=O)NCCC)N(C(=O)CC)[C@H]21 (mixture of isomers)	0.0	.	.	i	.	.	-0.6	-5.7	-2.4
CSc1nc(N)n2nccc2n1	0.4	.	.	i	0.7	.	3.5	2.6	-1.9
C=C(CCO)C1=CCN(S(=O)(=O)C(C)(C)C)[C@@H]1CCO	-1.7	0.0%	.	i	-2.0	0.688	3.6	1.8	4.7
Cc1ccsc1C(=O)OCC(=O)N1CCc2ccccc2C1	-0.4	8.2%	-1.4	.	6.8	0.69	-22.3*	-10.7*	-2.2*
CCc1ccc(C(=O)NC2CCCCC2)s1	.	?	-1.3	.	-0.3	0.694	.	.	.
CC(=O)c1ccc(N2CCN(C(C)C(=O)Nc3ccc4c(c3)OCCO4)CC2)cc1 (stereo not drawn)	2.6	.	-8.7	i	3.1	0.698	-5.2	-7.4	-8.8
O=C(CC1(c2ccc(Cl)cc2)C2CC3CC(C2)CC1C3)NCCO (stereo not drawn)	-4.2	-1.5%	-6.8	i	-1.4	0.722	-42.4*	-26.0*	-0.1*
Oc1ccccc1N1CCN(c2ccc3ccccc3n2)CC1	3.0	.	23.0	i	0.8	0.652	-9.0	-19.4	0.2
COc1ccc(NC(=O)CCNC(=O)Cn2cnc3ccccc3c2=O)cc1OC	-3.1	.	-7.0	i	0.7	0.633	5.2	8.6	-0.4
CC(C)C#Cc1ccc2c(c1)O[C@H](CN(C)C(=O)c1cccnc1)[C@@H](C)CN([C@H](C)CO)S2(=O)=O	2.4	.	.	i	.	.	-0.1	3.5	-0.9
Cc1noc(C)c1S(=O)(=O)N(C)C[C@H]1OCCCC[C@H](C)Oc2ccc(NS(=O)(=O)c3cn(C)cn3)cc2C(=O)N([C@@H](C)CO)C[C@@H]1C	-1.8	.	.	i	.	.	1.3	-0.1	-0.6
COc1ccc(S(=O)(=O)N(C)C[C@@H]2Oc3ccc(NC(=O)Cn4cnnn4)cc3C(=O)N([C@@H](C)CO)C[C@@H]2C)cc1	-1.3	.	.	i	.	.	1.1	1.3	1.4
CCCc1c(-c2ccccc2Br)ncn1Cc1ccccc1OC	0.2	.	.	i	0.6	.	-52.5	-78.2	-20.9
CCOc1ccc(Nc2ccc3nonc3c2[N+](=O)[O-])cc1	-1.2	8.0%	-6.2	i	0.0	0.602	3.9	7.5	-0.1
CCOc1ccc(NC(=O)CCNC(=O)C2CCN(S(=O)(=O)c3ccccc3)CC2)cc1	-1.0	.	2.3	i	0.0	0.679	2.6	2.3	-3.4
CC(C)(C)OC(=O)NCc1ccc(CNC(=O)c2[nH]cnc2C(=O)N[C@@H](Cc2ccccc2)C(=O)OCc2ccccc2)cc1	1.8	.	.	i	1.6	.	4.7	9.3	-7.7
Cc1sc2ncn(CC(=O)N3CCC(C(N)=O)CC3)c(=O)c2c1S(=O)(=O)N1CC(C)CC(C)C1 (stereo not drawn)	0.1	.	.	i	3.0	0.664	2.1	7.2	0.8
Cc1sc2ncn(CC(=O)NCCc3ccccc3)c(=O)c2c1C	.	0.8%	-22.5	.	-4.3	0.678	.	.	.
CCCC(=O)Nc1ccc(NCc2ccc(C)s2)cc1	-1.0	10.2%	91.2*	i	-2.8	0.636	2.7	4.4	1.9
COc1cc(C(=O)OCC(=O)N(C)Cc2ccccc2)cc(OC)c1OC	.	?	-2.4	.	-1.5	0.772	.	.	.
Cc1nc2[nH]c(=O)c3c(n2n1)NC1=C(C(=O)CC(C)(C)C1)C3c1ccccc1 (stereo not drawn)	.	0.1%	11.0	.	-5.2	0.736	.	.	.
O=C(C[C@@H]1C=C[C@@H](NC(=O)c2ccccc2)[C@@H](CO)O1)Nc1ccc(-c2ccccc2)cc1	0.3	.	.	i	.	.	0.5	-5.5	0.4
Cn1c2ccccc2c2cc(C(=O)OCC(=O)N3CC(=O)Nc4ccccc43)sc21	.	-115.2%	5.2	.	27.9	0.776	.	.	.

(more compounds)
SMILES	AF4-AF9 inh	Vif TR-FRET	ALR H2O2 inh	FGF22 binding	HNF4A DNA FP	E coli growth	rRNA inh HTS	rRNA inh HTS OD600	rRNA inh HTS RFP
COc1ccc(NS(=O)(=O)c2ccc(C)c(C(=O)N3CCC3)c2)cc1	0.1	-0.8%	0.0	.	-4.1	0.671	7.1	10.7	-1.2
COc1cccc(-c2cc(C(=O)Nc3ccc([N+](=O)[O-])cn3)c3ccccc3n2)c1	.	-40.8%	.	.	-1.2	0.709	.	.	.
COc1ccc(Cc2n[nH]c(=S)n2NC(=O)Nc2ccc(C)cc2)cc1	-5.3	-5.1%	33.1	.	-0.5	0.657	-7.6	-18.6	1.7
COc1cccc(N2CC(C(=O)Nc3nnc(SCC(=O)NC4CCCC4)s3)CC2=O)c1 (stereo not drawn)	-1.0	23.5%	-3.9	i	-0.1	0.707	8.4	7.0	-2.1
C/C(Cl)=C\Cn1c(N2CCCCCC2)nc2c1c(=O)n(C)c(=O)n2C	.	3.3%	8.4	.	1.6	0.689	.	.	.
COc1cccc(C(=O)Nc2ccc3c(c2)C(=O)N(C)[C@H]2CC[C@H](CC(=O)N[C@@H](C)c4ccccc4)O[C@H]2CO3)c1	-1.7	.	.	i	.	.	-3.1	-6.4	1.9
CC(=O)Nc1ccc(N/C=C/C(=O)c2ccco2)cc1	.	?	-0.6	.	3.1	0.736	.	.	.

A portion of the library; the hit share may differ from the screen's.
